High-throughput results: PubChem, several laboratories
Mtb betalactam: beta-lactam sensitization of Mtb H37Rv; M. tuberculosis H37Rv growth with meropenem, percent inhibition; hits of this screen are not shown here; inhibition, % at 25 µM; 330,000 compounds, 0.27% hits; AID 434955;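 active = about 74% or more and at least 40 points above the plate without the antibiotic, then above 30% in a dose series; inconclusive = first-round hits that could not be retested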;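 note: growth measured after seven days incubation then overnight dye step; 0% = bacteria only wells and 100% = bacteria with antibiotic; twin plates without the antibiotic show which effects depend on it; some results filed as inactive read as strong as hits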
Mtb growth: M. tuberculosis H37Rv growth inhibitors, H37Rv strain (AID 1626). 220,000 compounds, 0.95% hits. M. tuberculosis H37Rv growth inhibition; higher % means a stronger effect. inhibition, % at 10 µM, or IC50 in µM where a hit was titrated;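 active = confirmed in a dose series; inconclusive = inhibition above 80% but not taken into the dose series; inactive = below 80% or under 30% at every dose of the series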;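 note: bacteria incubated seven days before Alamar blue readout; 0% = bacteria only wells and 100% = bacteria with antibiotic wells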
Arbovirus anti: arbovirus infection inhibition. inhibition, % at 10 µM. arbovirus infection cell-based antiviral screen. AID 1251. 200,000 compounds, 0.37% hits;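 active = inhibition from about 30%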;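 note: bluetongue infection of BSR cells; cell survival read as ATP light after 72 h; 0% = infected wells without compound and 100% = uninfected wells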
YopH inh: inhibitors of Yersinia enterocolitica YopH tyrosine phosphatase. fluorescence Ex485/Em525. inhibition, %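 (about 10 µM by stock and volumes)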. 140,000 compounds, 0.16% hits;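 active = inhibition of 50% or more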;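 note: controls were vehicle for no effect and minimum signal wells for full effect; inactives centre near -20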
RecA intein inh: blocks M. tuberculosis RecA intein splicing. 290,000 compounds, 0.75% hits. AID 2221. inhibition, %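 (about 9 µM by stock and volumes)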. cell-free RecA intein splicing, fluorescence; in the data active = inhibition above about 30%; inconclusive = no clear call, values can overlap the other calls;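 note: 0% = vehicle wells and 100% = reference inhibitor control wells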
Target sequence (P9WHJ3 whole entry, looked up): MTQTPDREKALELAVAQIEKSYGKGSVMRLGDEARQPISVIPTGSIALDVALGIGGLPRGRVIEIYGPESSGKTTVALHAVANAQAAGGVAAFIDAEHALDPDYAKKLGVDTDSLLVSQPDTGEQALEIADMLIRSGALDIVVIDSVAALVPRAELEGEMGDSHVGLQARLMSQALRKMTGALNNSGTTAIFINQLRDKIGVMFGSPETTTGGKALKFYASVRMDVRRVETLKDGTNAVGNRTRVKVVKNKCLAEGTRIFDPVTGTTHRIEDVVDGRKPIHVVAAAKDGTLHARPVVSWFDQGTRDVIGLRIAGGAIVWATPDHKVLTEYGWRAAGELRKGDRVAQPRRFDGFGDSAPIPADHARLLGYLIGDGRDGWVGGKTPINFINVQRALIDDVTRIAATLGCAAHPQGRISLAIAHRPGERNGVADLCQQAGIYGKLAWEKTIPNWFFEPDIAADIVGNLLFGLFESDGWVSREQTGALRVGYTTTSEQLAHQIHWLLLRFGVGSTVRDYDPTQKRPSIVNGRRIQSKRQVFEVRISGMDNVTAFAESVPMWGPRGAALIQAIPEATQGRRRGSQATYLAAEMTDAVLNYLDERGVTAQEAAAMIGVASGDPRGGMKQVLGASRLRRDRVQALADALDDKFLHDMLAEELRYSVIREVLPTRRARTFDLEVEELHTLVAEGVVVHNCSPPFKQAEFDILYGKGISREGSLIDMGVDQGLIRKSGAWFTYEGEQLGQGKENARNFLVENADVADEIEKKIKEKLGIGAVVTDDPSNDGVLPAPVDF
Arbovirus anti repeat: recorded beside Arbovirus anti, whose call it bears; inhibition, %; measured here: 10K subset replicate screen; many hits read low in the repeat;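 first of two repeat runs on a subset; 0% = infected and 100% = uninfected wells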
An asterisk follows results filed as active. Not all compounds are listed; count on the stated rates, not on these rows.

`Cc1cc(OCCCCN2C(=O)NC(C)(C)C2=O)ccc1[N+](=O)[O-]` gave Mtb betalactam 5, Mtb growth 4%, Arbovirus anti 5 and RecA intein inh 3.2.
OCc1nc2ccccc2n1Cc1c(F)cccc1Cl was read as Mtb betalactam -11, Mtb growth 6% and RecA intein inh -1.1.
`CCOc1ccc(NC(=O)c2cccc(NC3=NC4CS(=O)(=O)CC4S3)c2)cc1` (configuration not stated) gave Mtb betalactam 2 and RecA intein inh 1.4.
For CCOc1ccc(CCNC(=O)COC(=O)Cc2ccc(F)cc2)cc1OCC the results were Mtb betalactam -9 and RecA intein inh -3.9.
For Cc1cc(/C=C(\C#N)C(=O)Nc2ccc(Cl)cc2)c(C)n1-c1ccc(N2CCOCC2)c([N+](=O)[O-])c1 the results were Mtb betalactam 27, Mtb growth 6%, Arbovirus anti 2, YopH inh -13 and RecA intein inh 9.4.
For CCOCCCNC(=O)CCS(=O)(=O)Cc1ccc(C)cc1 the results were Mtb betalactam 3, Mtb growth -13%, Arbovirus anti 0, YopH inh -22 and RecA intein inh -1.2.
`O=C(CN1C(=O)c2cccnc2Oc2ccc(Cl)cc21)Nc1ccc(F)cc1` gave Mtb betalactam inconclusive and RecA intein inh 1.3.
For Oc1ccccc1OCCOc1ccccc1OCCOc1ccccc1O the results were Mtb betalactam 2, Mtb growth 4% and RecA intein inh 4.5.
Screening Cc1ccccc1CN1C[C@@H]2C[C@@H](c3cnc(N4CCOCC4)s3)N3CCC[C@@]23C1=O returned Mtb betalactam -4, Mtb growth 7%, Arbovirus anti 6 and RecA intein inh 0.1.
CCCC(=O)c1ccc(N2CCN(S(=O)(=O)c3ccc(C)cc3)CC2)c(F)c1 was read as Mtb betalactam 6, Mtb growth 0%, Arbovirus anti 21, YopH inh -20 and RecA intein inh 1.1.
Screening COc1ccc2nc3oc(C(=O)NC4CCN(Cc5ccccc5)CC4)cc3cc2c1 returned Mtb betalactam -4, Mtb growth 12%, Arbovirus anti -6 and YopH inh 24.
For CCOC(=O)CN(C(=O)COc1nc(-c2ccccc2)cc(C)c1C#N)c1cccc(OC)c1 the results were Mtb betalactam -9, Mtb growth -4% and RecA intein inh 4.5.
For CN(CC(=O)Nc1ccc(S(N)(=O)=O)cc1)c1ccccc1 the results were Mtb betalactam 7, Mtb growth -9%, Arbovirus anti 19, YopH inh -11 and RecA intein inh -0.8.
Screening CCOC(=O)CN1N=C(c2ccc(Cl)cc2)CCC1=O returned Mtb betalactam -4 and RecA intein inh 1.2.
`O=C(CN1CCCC1)N1c2ccccc2C=Cc2ccccc21` gave Mtb betalactam 2, Mtb growth 2%, Arbovirus anti 2 and RecA intein inh -0.6.
O=C(N/N=C/c1c(O)n(Cc2ccc(F)cc2)c(=O)[nH]c1=O)c1ccccc1O was read as Mtb betalactam 4, Mtb growth 7%, Arbovirus anti 55*, YopH inh 0 and RecA intein inh 32*.
CCOC(=O)c1cc(=O)c2ccc(OCC(=O)Nc3ccc(F)cc3)cc2o1 was read as Mtb betalactam 6, Mtb growth -9% and RecA intein inh 0.2.
For O=C(NC(Cc1ccccc1)c1nc2ccccc2[nH]1)C1CC(=O)N(c2ccc3c(c2)OCCO3)C1 (configuration not stated) the results were Mtb betalactam 1, Mtb growth -4%, Arbovirus anti 3, YopH inh -20 and RecA intein inh 6.0.
For CN(NC(=O)c1ccccc1Cl)c1ncc(C(F)(F)F)cc1Cl the results were Mtb betalactam 44, Mtb growth -1% and RecA intein inh 1.1.
`COc1ccc(NC(=O)/C(C#N)=C/c2ncc([N+](=O)[O-])n2C)c(OC)c1` gave Mtb betalactam 50, Mtb growth -1% and RecA intein inh 37*.
For COc1ccc(-n2cnc3cc(C(=O)N4CCOCC4)ccc32)cc1 the results were Mtb betalactam 0 and RecA intein inh 0.4.
For O=C(O)C1=C[C@@H](c2ccc(Br)cc2)C[C@@H](OCCCCO)O1 the results were Mtb betalactam 24, Mtb growth -9% and RecA intein inh -1.1.
Screening CS(=O)(=O)Nc1ccc(S(=O)(=O)Nc2nccs2)cc1 returned Mtb betalactam -43, Mtb growth -10%, Arbovirus anti -4, YopH inh -23 and RecA intein inh -0.5.
For CC(CC(=O)O)n1nnc2ccccc21 (configuration not stated) the results were Mtb betalactam 0, Mtb growth 2% and RecA intein inh 0.3.
Screening COc1ccc(C(CCNCc2ccc(N(C)C)cc2)C(C)C)cc1 (configuration not stated) returned Mtb betalactam 4, Mtb growth 8% and RecA intein inh 1.2.
For COc1cc(NC(=O)CN(C)S(=O)(=O)c2ccc3c(c2)CC(C)N3C(C)=O)cc(OC)c1OC (configuration not stated) the results were Mtb betalactam 0 and RecA intein inh 0.8.
Cc1cc(C)c(C)c(OCCOCCN2CCOCC2)c1 was read as Mtb betalactam 4, Mtb growth -3%, Arbovirus anti -2, YopH inh -50 and RecA intein inh -4.2.
`CC1CC(C)CN(CC(=O)N2c3ccccc3CCc3ccccc32)C1` (configuration not stated) gave Mtb betalactam -2, Mtb growth 0%, Arbovirus anti 10, YopH inh -17 and RecA intein inh 1.9.
Cc1ccc(Cc2cc(-c3ccc(C)cc3)n[nH]c2=O)cc1 was read as Mtb betalactam -3, Mtb growth 6% and RecA intein inh 1.5.
`C/C(CCc1ccccc1)=N\NC(=O)C(=O)Nc1cccc(Cl)c1` gave Mtb betalactam 96, Mtb growth inconclusive, Arbovirus anti -11 and RecA intein inh -3.8.
`Cc1ccc2c(c1)C(C)(C)[C@]1(C)NC(=O)CCN21` gave Mtb betalactam -9, Mtb growth 3%, Arbovirus anti -4, YopH inh -22 and RecA intein inh -0.2.
For COc1ccc(C(=O)NCCNc2nc3c(C)cccc3cc2C#N)cc1 the results were Mtb betalactam -7 and RecA intein inh -6.9.
Screening O=C1c2cccnc2C(O)N1C1CCCCC1 (configuration not stated) returned Mtb betalactam 12, Mtb growth -3%, Arbovirus anti -1, YopH inh -35 and RecA intein inh 1.3.
COc1ccc2nc(C)cc(Nc3ccccc3O)c2c1 was read as Mtb betalactam 78, Mtb growth 9%, Arbovirus anti -12 and RecA intein inh 0.2.
`CN(C)C(=O)CN1C(=O)c2cccc3cccc1c23` gave Mtb betalactam -7 and RecA intein inh -34.
Cc1ccc(-n2nnnc2-c2ccccc2Br)cc1 was read as Mtb betalactam -2 and RecA intein inh 4.1.
For O=C(c1ccccc1)c1ccc2nc[nH]c2c1 the results were Mtb betalactam -10, Mtb growth -6%, Arbovirus anti 8, YopH inh 3 and RecA intein inh 3.2.
For CCCCCCCCNC(=O)c1cccnc1SCC(=O)Nc1ccccc1OC the results were Mtb betalactam -2, Mtb growth 8%, Arbovirus anti 0, YopH inh -6 and RecA intein inh 0.9.
Screening CC12CN3CC(C)(CN(C1)C3c1ccccc1)C2O (configuration not stated) returned Mtb betalactam -17, Mtb growth -1%, Arbovirus anti 2 and RecA intein inh -2.2.
COCCNC(=S)N/N=C(\C)c1ccc(Cl)c(Cl)c1 was read as Mtb betalactam 84, Mtb growth inconclusive, Arbovirus anti 3 and RecA intein inh 0.5.
Screening COc1ccc(OC)c(N(CC(=O)Nc2ccc3c(c2)OCCO3)S(C)(=O)=O)c1 returned Mtb betalactam -12, Mtb growth 1%, Arbovirus anti 5, YopH inh -20, RecA intein inh 0.9 and Arbovirus anti repeat 1.
Screening COC(=O)c1cc(NC(=O)c2cc(C(C)(C)C)nn2Cc2cccc(C)c2)ccc1N1CCOCC1 returned Mtb betalactam 8, Mtb growth 17% and RecA intein inh 7.2.
FC(F)(F)c1cnc(N2CCC(=NOCc3ccc(Cl)cc3)CC2)c(Cl)c1 was read as Mtb betalactam 82, Mtb growth -5%, Arbovirus anti -2, YopH inh -28 and RecA intein inh 7.4.
Screening CCOc1ccccc1C(=O)Nn1c(C2CCC2)nc2ccccc2c1=O returned Mtb betalactam 65, Mtb growth 11%, Arbovirus anti 0, YopH inh -4 and RecA intein inh 0.9.
For CC1CCC(C(C)C)C(OC(=O)C[n+]2cc(-c3ccc(Cl)cc3)n3c2CCCCC3)C1 (configuration not stated) the results were Mtb betalactam 100, Mtb growth inconclusive and Arbovirus anti -33.

Random excerpt: four compounds from above, in no set order.
Cc1cc(C)c(C)c(OCCOCCN2CCOCC2)c1 was read as Mtb betalactam 4, Mtb growth -3%, Arbovirus anti -2, YopH inh -50 and RecA intein inh -4.2.
`O=C(CN1C(=O)c2cccnc2Oc2ccc(Cl)cc21)Nc1ccc(F)cc1` gave Mtb betalactam inconclusive and RecA intein inh 1.3.
Screening COC(=O)c1cc(NC(=O)c2cc(C(C)(C)C)nn2Cc2cccc(C)c2)ccc1N1CCOCC1 returned Mtb betalactam 8, Mtb growth 17% and RecA intein inh 7.2.
Screening COc1ccc(OC)c(N(CC(=O)Nc2ccc3c(c2)OCCO3)S(C)(=O)=O)c1 returned Mtb betalactam -12, Mtb growth 1%, Arbovirus anti 5, YopH inh -20, RecA intein inh 0.9 and Arbovirus anti repeat 1.

Additional records follow:
Screening CC(Oc1cc(F)ccc1[N+](=O)[O-])C(=O)Nc1ccc(S(=O)(=O)N2CCCC2)cc1 (configuration not stated) returned Mtb betalactam -5, Mtb growth -1%, Arbovirus anti 9 and RecA intein inh 1.4.
For O=C(NCCCCc1ccccc1)c1ccccc1 the results were Mtb betalactam -7, Mtb growth 7%, Arbovirus anti 9 and RecA intein inh 0.2.
For Cc1ccc(/C=C/C(=O)Nc2nccs2)o1 the results were Mtb betalactam 1, Mtb growth 4%, Arbovirus anti -3, YopH inh 1 and RecA intein inh 7.6.
Screening C[C@@H]1C=C(C(=O)N2CCN(Cc3ccc4c(c3)OCO4)CC2)O[C@H](OCCCCO)C1 returned Mtb betalactam 2, Arbovirus anti 3 and RecA intein inh -5.6.
`CN(c1ccccc1)c1nc(N)c([N+](=O)[O-])c(Nc2ccccc2)n1` gave Mtb betalactam 3 and RecA intein inh -1.3.
`CC12CCC(C1)C(C)(C)C2OC(=O)c1ccccc1C(=O)O` (configuration not stated) gave Mtb betalactam -5, Mtb growth -14% and RecA intein inh 2.5.
COc1ccc(CCNC(=O)Cn2ccc3c(OC)cccc3c2=O)cc1OC was read as Mtb betalactam 2, Mtb growth -1% and RecA intein inh -0.1.
O=C(N[C@@H](c1ccccc1)[C@@H]1C[C@H]1C(=O)NCc1ccccn1)OCc1ccccc1 was read as Mtb betalactam -1, Mtb growth -10%, Arbovirus anti -9, YopH inh -20 and RecA intein inh -0.5.
Screening CCCn1c(C2CCCN2c2nc(-c3ccc(OC)cc3)cs2)nc2ccccc21 (configuration not stated) returned Mtb betalactam 4 and RecA intein inh 12.
For COc1cccc(NC(=O)N2CCCC2C(=O)NCc2ccccc2F)c1 (configuration not stated) the results were Mtb betalactam 2, Mtb growth -9%, Arbovirus anti 3 and RecA intein inh 0.9.
`COc1ccc(N2C(=O)C(Cl)=C(Nc3ccc(OC)cc3OC)C2=O)cc1` gave Mtb betalactam 14, Mtb growth -1%, Arbovirus anti 0 and RecA intein inh 1.9.
Screening Cc1cccc(NC(=O)COc2ccc(Br)cc2)n1 returned Mtb betalactam 98, Mtb growth 69%, Arbovirus anti 10, YopH inh -8 and RecA intein inh 5.1.
For COCCNC(=O)c1onc(CCl)c1C(=O)OC the results were Mtb betalactam 96, Mtb growth 0%, Arbovirus anti 8, YopH inh -18 and RecA intein inh -1.5.
Screening COc1cc(/C=C(/C#N)c2nc3ccccc3[nH]2)ccc1OCC(=O)Nc1ccccc1C returned Mtb betalactam 12, Mtb growth 4%, Arbovirus anti -23 and YopH inh -21.
CN(C)c1ccc(/C=N/O)cc1 was read as Mtb betalactam -6, Mtb growth 3%, Arbovirus anti 8 and RecA intein inh -0.7.
Screening O=C(CSc1nc2ccc([N+](=O)[O-])cc2[nH]1)NC1CCCCCC1 returned Mtb betalactam 21, Mtb growth 8%, Arbovirus anti 5, YopH inh -20 and RecA intein inh 1.6.
O=C(c1ccccc1)c1ccc(OCC(O)CNCc2ccc(Cl)cc2)cc1 (configuration not stated) was read as Mtb betalactam 78 and RecA intein inh 1.7.
`COc1ccc(Cl)c(NCCC(=O)O)c1` gave Mtb betalactam 2, Mtb growth -8%, Arbovirus anti 2, YopH inh -23 and RecA intein inh 0.2.
Screening CC(C)(C)c1ccc(C(=O)NC(CC(=O)O)c2ccc(OC3CCCC3)cc2)cc1 (configuration not stated) returned Mtb betalactam -3 and RecA intein inh 4.2.
`COc1ccccc1NC(=O)C(NC(=O)OC(C)(C)C)C(C)OCc1ccccc1` (configuration not stated) gave Mtb betalactam -15, Mtb growth 2%, Arbovirus anti -1, YopH inh -28 and RecA intein inh 7.4.
For O=C(CNCCO)N1CCc2ccccc21 the results were Mtb betalactam -4, Mtb growth 2%, Arbovirus anti 2, YopH inh -20 and RecA intein inh -3.8.
